Bioassay records: PubChem, several laboratories
Arbovirus anti: blocks arbovirus infection; arbovirus infection cell-based antiviral screen; inhibition, % at 10 µM; actives 0.37% (n = 200,000); AID 1251;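 active = inhibition from about 30%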;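 note: bluetongue infection of BSR cells; cell survival read as ATP light after 72 h; 0% = infected wells without compound and 100% = uninfected wells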
Mtb bLac sens: beta-lactam sensitization of Mtb H37Rv; AID 434955; M. tuberculosis H37Rv growth with meropenem, percent inhibition; hits of this screen are not shown here; actives 0.27% (n = 330,000); inhibition, % at 25 µM;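 active = about 74% or more and at least 40 points above the plate without the antibiotic, then above 30% in a dose series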;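 note: growth measured after seven days incubation then overnight dye step; 0% = bacteria only wells and 100% = bacteria with antibiotic; twin plates without the antibiotic show which effects depend on it; some results filed as inactive read as strong as hits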
Mtb H37Rv: M. tuberculosis H37Rv growth inhibitors, H37Rv strain (AID 1626). actives 0.95% (n = 220,000). one-dose inhibition, % at 10 µM; IC50 in µM for titrated hits. M. tuberculosis H37Rv growth inhibition; higher % means a stronger effect;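 active = confirmed in a dose series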;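 note: bacteria incubated seven days before Alamar blue readout; 0% = bacteria only wells and 100% = bacteria with antibiotic wells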
RecA intein inh: inhibitors of M. tuberculosis RecA intein splicing; AID 2221; cell-free RecA intein splicing, fluorescence; actives 0.75% (n = 290,000); inhibition, %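 (about 9 µM by stock and volumes)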; P9WHJ3; in the data active = inhibition above about 30%;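 note: 0% = vehicle wells and 100% = reference inhibitor control wells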
Target sequence (P9WHJ3 whole entry, looked up): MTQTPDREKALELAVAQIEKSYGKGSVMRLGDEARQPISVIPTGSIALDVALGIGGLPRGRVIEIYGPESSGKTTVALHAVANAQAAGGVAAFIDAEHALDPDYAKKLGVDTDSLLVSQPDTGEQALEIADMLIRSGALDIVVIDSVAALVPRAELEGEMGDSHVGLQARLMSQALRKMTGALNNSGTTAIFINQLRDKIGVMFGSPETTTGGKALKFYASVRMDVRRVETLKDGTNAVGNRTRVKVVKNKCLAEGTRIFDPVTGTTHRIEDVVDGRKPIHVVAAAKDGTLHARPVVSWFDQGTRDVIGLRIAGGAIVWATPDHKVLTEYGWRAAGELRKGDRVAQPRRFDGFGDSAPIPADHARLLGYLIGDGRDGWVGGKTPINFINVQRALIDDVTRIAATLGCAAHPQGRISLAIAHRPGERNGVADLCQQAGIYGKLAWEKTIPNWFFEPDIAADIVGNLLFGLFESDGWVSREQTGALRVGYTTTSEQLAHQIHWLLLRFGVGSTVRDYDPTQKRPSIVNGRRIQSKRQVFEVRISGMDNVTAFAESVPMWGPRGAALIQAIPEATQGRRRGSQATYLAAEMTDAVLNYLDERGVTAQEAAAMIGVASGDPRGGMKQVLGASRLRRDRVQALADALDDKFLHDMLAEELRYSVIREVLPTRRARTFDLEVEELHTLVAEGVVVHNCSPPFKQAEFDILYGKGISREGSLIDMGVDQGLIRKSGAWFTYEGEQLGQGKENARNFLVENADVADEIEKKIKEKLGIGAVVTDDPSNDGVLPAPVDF
YopH inh: blocks Yersinia enterocolitica YopH tyrosine phosphatase. fluorescence Ex485/Em525. inhibition, %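 (about 10 µM by stock and volumes)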. actives 0.16% (n = 140,000). AID 898;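 active = inhibition of 50% or more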;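 note: controls were vehicle for no effect and minimum signal wells for full effect; inactives centre near -20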
Arbovirus anti repeat: further read-out of Arbovirus anti, marked with its call; inhibition, %; measured here: 10K subset replicate screen; many hits read low in the repeat;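 first of two repeat runs on a subset; 0% = infected and 100% = uninfected wells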
Numbers without * were called inactive; · = not tested or not shown. Some of the compounds tested. The share of hits here may be higher or lower than overall.

SMILES | Arbovirus anti | Mtb bLac sens | Mtb H37Rv | RecA intein inh | YopH inh | others
O=C(/C=C/c1cccc(Cl)c1)NCc1ccccc1 | -14 | 1 | 1% | -3.8 | ·
O=C(COC(=O)c1ccc2c(c1)OCO2)NC1CCS(=O)(=O)C1 (stereo not drawn) | 4 | -13 | -3% | -5.6 | -29
O=C(CCSc1ccccc1)NC(=O)COC(=O)c1ccc(OC(F)F)cc1 | -1 | 4 | -25% | 1.7 | -43
CCOC(=O)c1c(C)[nH]c(C(=O)CN2C(=O)NC3(CCCC3)C2=O)c1C | · | -5 | -7% | 0.3 | ·
Cc1c(Cl)c([N+](=O)[O-])nn1Cc1ccc(C(=O)NN)o1 | · | -3 | -3% | 0.3 | ·
COc1ccc(Br)cc1S(=O)(=O)N1CCOCC1 | 1 | -4 | -2% | -1.3 | 35
COc1ccc2oc(=O)c(C(=O)Nc3cccc(C)c3)cc2c1 | -9 | 0 | -5% | · | ·
Cc1cccc(NC(=S)NCCC(c2ccccc2)c2ccccc2)c1 | -27 | 8 | 6% | 15 | -29
CC(NC(=O)Cc1ccc(S(=O)(=O)N2CCOCC2)s1)c1ccc(Cl)cc1Cl (stereo not drawn) | · | -3 | · | 2.8 | ·
COC(=O)c1ccc(OC(=O)CCN2c3ccccc3Sc3ccccc32)cc1 | 5 | 3 | 1% | 12 | -9
O=C(COC(=O)CNS(=O)(=O)c1ccc(F)c(F)c1F)NCCc1ccccc1 | · | -11 | · | -0.8 | ·
COc1ccccc1CNC(=O)C1CC(c2ccccc2[N+](=O)[O-])=NO1 (stereo not drawn) | 0 | -12 | 2% | -2.2 | -24
NC(=NCc1ccco1)NC(=O)c1ccc(Cl)cc1 | · | 3 | · | -1.0 | ·
CC(=O)Nc1ccc(S(=O)(=O)NCC(=O)NCCc2ccc(S(N)(=O)=O)cc2)cc1 | 10 | -8 | -8% | 4.4 | ·
CCCc1cc(=O)[nH]c(SCc2cc(=O)oc3c(C)c(C)ccc23)n1 | 5 | 8 | 2% | -1.3 | -23
Cc1ccc2nc(SCC(=O)N3CCN(C(=O)c4ccco4)CC3)[nH]c2c1 | 2 | 7 | -7% | 5.3 | -21
COc1ccc(OCC(=O)Nc2ncc3c(n2)CC(C)(C)CC3=O)cc1 | 4 | -6 | -3% | 1.2 | -32
CC(=O)Nc1ccc(CN2CCN(CCC(C)C)C(CCO)C2)cc1 (stereo not drawn) | 3 | 13 | -9% | -3.2 | ·
O=C(Nc1cccc(-c2csc(Nc3ccc(Cl)cc3)n2)c1)c1ccccc1 | · | 97 | 53% | 2.4 | ·
FC(F)(F)c1cccc(N2CCN(CC3CC=CCC3)CC2)c1 (stereo not drawn) | -11 | 1 | · | 6.9 | 5
Cc1cc(C(=O)N2CCCC(C(=O)c3cccc(C(F)(F)F)c3)C2)nc(C)n1 (stereo not drawn) | 5 | -2 | -11% | -9.4 | ·
CCOc1ccc(S(=O)(=O)NN=C2CCN(C(C)=O)CC2)cc1 | 1 | 6 | -4% | 6.2 | ·
CCSc1nnc(NC(=O)COc2cccc3ccccc23)s1 | 0 | -2 | -2% | -2.2 | -8
CN(C)C=NC(=O)/C(C#N)=C/c1ccccc1 | 4 | -10 | 8% | 1.9 | ·
O=C(Cn1c(=O)oc2cc(S(=O)(=O)N3CCCC3)ccc21)N1CCN(C2CCCCC2)CC1 | -5 | -11 | -2% | -3.0 | -8

In the list so far, four contain an aryl methoxy group.
SMILES | Arbovirus anti | Mtb bLac sens | Mtb H37Rv | RecA intein inh | YopH inh | others
COc1ccc(Br)cc1S(=O)(=O)N1CCOCC1 | 1 | -4 | -2% | -1.3 | 35
COc1ccc2oc(=O)c(C(=O)Nc3cccc(C)c3)cc2c1 | -9 | 0 | -5% | · | ·
COc1ccccc1CNC(=O)C1CC(c2ccccc2[N+](=O)[O-])=NO1 (stereo not drawn) | 0 | -12 | 2% | -2.2 | -24
COc1ccc(OCC(=O)Nc2ncc3c(n2)CC(C)(C)CC3=O)cc1 | 4 | -6 | -3% | 1.2 | -32

The listing picks up, starting 3 compounds before the break.
SMILES | Arbovirus anti | Mtb bLac sens | Mtb H37Rv | RecA intein inh | YopH inh | others
CCSc1nnc(NC(=O)COc2cccc3ccccc23)s1 | 0 | -2 | -2% | -2.2 | -8
CN(C)C=NC(=O)/C(C#N)=C/c1ccccc1 | 4 | -10 | 8% | 1.9 | ·
O=C(Cn1c(=O)oc2cc(S(=O)(=O)N3CCCC3)ccc21)N1CCN(C2CCCCC2)CC1 | -5 | -11 | -2% | -3.0 | -8
CCCCN(C(=O)C1CCC1)c1c(N)n(CC(C)C)c(=O)[nH]c1=O | · | -13 | · | -0.7 | ·
CC1=C(c2ccc(C)cc2)S(=O)(=O)N(CC(=O)O)C1=O | 2 | -6 | -14% | -0.8 | -15
COc1cc(OC)cc(C(=O)Nc2cc(C)on2)c1 | · | -3 | · | 1.6 | ·
CSCCC(NC(=O)c1ccc(Cl)cc1)C(=O)OCC(=O)Nc1cc(Cl)ccc1C (stereo not drawn) | 10 | 9 | 4% | 3.8 | -26
CC(=O)c1c(C)[nH]c(C(=O)Nc2ccccc2N2CCOCC2)c1C | -2 | -4 | 10% | 0.4 | ·
Cc1ccc(C(=O)Nc2sc(C)c(-c3ccccc3)c2C(N)=O)cc1[N+](=O)[O-] | -3 | 3 | 10% | -1.1 | -13
CCCC(=O)c1ccc(-c2ccccc2)cc1 | 5 | 0 | 11% | 2.5 | 10
CN1CCN(NC(=O)c2cc(-c3cccc(Cl)c3)nc3ccccc23)CC1 | -31 | -6 | -1% | -0.5 | ·
Cc1ccc(N(CCC#N)C(=O)CSc2ccc3c(c2)OCCO3)cc1 | 1 | -17 | 4% | -1.9 | -21
O=C(CN1C(=O)NC2(CCCC2)C1=O)c1ccc(Cl)s1 | · | -5 | · | -0.2 | ·
CC(C)C[C@H](NC(=O)c1[nH]cnc1C(=O)N[C@H](C)c1ccccc1)C(=O)OC(C)(C)C | -20 | 5 | 18% | -1.2 | ·
COc1cc(C(CCN2CCN(c3ccccc3)CC2)c2c(OC)cc(OC)c3ccc(=O)oc23)cc(OC)c1OC (stereo not drawn) | · | -1 | -11% | 1.0 | ·
Nc1n[nH]c2ccccc12 | -13 | -2 | 7% | 3.6 | ·
C#Cc1ccc([C@H]2C=C(C(=O)OCC=C)O[C@@H](OCc3ccc(CO)cc3)C2)cc1 | · | 5 | -2% | 3.3 | ·
Cc1ccc(-c2nnn(CC(=O)N3C(C)CCCC3C)n2)cc1 (stereo not drawn) | · | 2 | · | -1.1 | ·
COc1c(Cl)cc(Cl)cc1C(=O)Nc1ccccc1N1CCN(C(C)=O)CC1 | · | -2 | 2% | -1.8 | -14
C=C1CCC[C@]2(C)C[C@H]3OC(=O)C(CN4CCOCC4)[C@H]3C[C@@H]12 (stereo partly drawn) | · | 1 | · | -2.4 | ·
CCOc1cc(NC(=S)Nc2cccc(OC)c2)c(OCC)cc1NC(=O)c1ccc(C)cc1 | -4 | 0 | -4% | -0.8 | -14
CC(=O)Nc1ccc(S(=O)(=O)NC2(C(F)(F)F)NC(=O)N(c3ccc(Cl)cc3)C2=O)cc1 (stereo not drawn) | 3 | -7 | -6% | -0.6 | -42
CCOC(=O)N1CCN(C(=O)CCc2c(C)nc3nc(C)nn3c2C)CC1 | -2 | -2 | -14% | 0.2 | -32
CCOc1ccc(CN2CCN(S(=O)(=O)c3ccc(NC(C)=O)cc3)CC2)cc1OC | 16 | 5 | 0% | -0.1 | -44
CCOc1ccccc1N(C)C(=O)C1CCN(S(=O)(=O)c2cccc3nonc23)CC1 | 9 | -4 | 3% | 1.0 | -11
Cc1c(NC(=O)c2ccc(F)cc2)c(=O)n(-c2ccccc2)n1C | 0 | -4 | -2% | 0.2 | -2 | Arbovirus anti repeat=6
CCN=C1S/C(=C\c2ccc(N3CCOCC3)cc2C)C(=O)N1CC | -15 | 4 | 7% | 1.0 | -21
Cc1cc(NC(=O)CSc2nnc(-c3ccccc3Cl)o2)no1 | · | 67 | · | -1.3 | ·

Filtered by structure: the entries above containing a cyano group
SMILES | Arbovirus anti | Mtb bLac sens | Mtb H37Rv | RecA intein inh | YopH inh | others
CN(C)C=NC(=O)/C(C#N)=C/c1ccccc1 | 4 | -10 | 8% | 1.9 | ·
Cc1ccc(N(CCC#N)C(=O)CSc2ccc3c(c2)OCCO3)cc1 | 1 | -17 | 4% | -1.9 | -21

Next results follow.
SMILES | Arbovirus anti | Mtb bLac sens | Mtb H37Rv | RecA intein inh | YopH inh | others
Cc1cc(C=C2C(=O)c3ccccc3C2=O)c(C)n1-c1ccc(Cl)cc1 | -16 | · | · | · | -26
Cn1c(-c2ccc3c(c2)OCO3)cnc1NCc1cccc(Cl)c1 | -13 | 98 | 11µM* | -1.5 | -20
Cc1ccc(NC2=NC(c3ccccc3)n3c(nc(C)cc3=O)N2)c(C)c1 (stereo not drawn) | 11 | -7 | -6% | -1.4 | -11
COc1ccc(-c2cc(CCCC(=O)NCCc3cc(OC)ccc3OC)no2)cc1 | 5 | -10 | · | -0.8 | -22
CC(C)c1ccc(N2C(=O)CC(Sc3ncn[nH]3)C2=O)cc1 (stereo not drawn) | 6 | -6 | 1% | 20 | -6
Cc1ccc(C)c2c1cc(C)c1nnc(SCC(=O)Nc3nc4c(s3)CCCC4)n12 | -13 | 9 | 2% | -1.2 | -20
COC(=O)c1ccc(OCC(=O)N2CCCc3ccccc32)cc1 | · | 0 | · | 4.3 | ·
Cc1nc(NC(=O)CSc2nnc(N)s2)c(Cl)cc1Cl | 7 | -15 | 3% | -1.1 | ·
O=C1Cc2cc(S(=O)(=O)NCc3ccccc3Cl)cc3c2N1CCC3 | · | 0 | · | 4.0 | ·
Cc1cc(C)n2nc(C(=O)OCC(=O)N(C)C3CCCCC3)nc2n1 | · | 46 | · | 1.8 | ·
O=C(c1coc(=O)c(Br)c1)N1CCCc2ccccc21 | 32* | 8 | 0% | 0.4 | -13
CC1(C(=O)O)CCC(C(=O)N2CCOCC2)C1(C)C (stereo not drawn) | 3 | -4 | -7% | -2.0 | -49
CC(C)N1C(=O)N(c2ccccc2)C(C)(O)CC1(C)C (stereo not drawn) | 2 | -7 | 1% | -3.0 | -21
Cc1n[nH]c(=S)n1/N=C/c1ccccc1OCc1ccc(Cl)cc1 | -7 | 13 | 6% | -0.3 | -53
Cc1cccc(NC(=O)c2onc3c2CCCC3)c1C | 1 | 88 | 16% | 1.4 | -22
CC(C)N(Cc1nc(-c2ccccc2)no1)C(=O)c1ccc2c(c1)OCO2 | -3 | -2 | 1% | 3.5 | -32
CS(=O)(=O)N(CC(=O)Nc1ccc(F)cc1F)c1cccc([N+](=O)[O-])c1 | 4 | -18 | -11% | 0.7 | -17
Cc1ccc(S(=O)(=O)NCC2CCC(C(=O)N3CCN(C)CC3)CC2)cc1 (stereo not drawn) | · | 7 | · | -7.3 | ·
O=C1C=C(N2CCCCCC2)C2(CCCCC2)O1 | 1 | 5 | -27% | -3.5 | ·
CN(CCC#N)C(=O)COC(=O)c1ccc2c(=O)n3c(nc2c1)CCC3 | 20 | -9 | 18% | -1.7 | ·
CCOc1ncccc1C(=O)N1CCN(S(=O)(=O)c2ccc(Br)cc2Cl)CC1 | 8 | -2 | 3% | -2.7 | ·
CCSc1oc(-c2ccco2)nc1S(=O)(=O)c1ccc(F)cc1 | -5 | -9 | -2% | 4.5 | -4 | Arbovirus anti repeat=4
COc1cccc(N2CC(C(=O)N3CCC4(CC3)CC(=O)c3ccccc3O4)CC2=O)c1 (stereo not drawn) | · | -12 | · | -0.1 | ·
NS(=O)(=O)c1ccc(NC(=O)COC(=O)c2cc([N+](=O)[O-])ccc2Cl)cc1 | · | -5 | 3% | -1.0 | ·
Cc1cc(NC(=O)c2cccc(S(=O)(=O)N3CCOCC3)c2)no1 | -3 | 14 | -14% | -0.3 | -7
CCN(c1ccccc1)S(=O)(=O)c1cnc[nH]1 | 18 | 1 | 9% | 0.8 | -32
COc1cc(/C=C2\C(=N)N3N=C(S(C)(=O)=O)SC3=NC2=O)cc(OC)c1OCCOc1ccccc1C | · | 0 | · | 12 | ·
CNC(=O)CN(c1ccc(F)cc1)S(=O)(=O)c1cc(C)ccc1OC | 6 | 1 | -1% | -0.9 | -21

5 records drawn at random from the list so far:
SMILES | Arbovirus anti | Mtb bLac sens | Mtb H37Rv | RecA intein inh | YopH inh | others
Cn1c(-c2ccc3c(c2)OCO3)cnc1NCc1cccc(Cl)c1 | -13 | 98 | 11µM* | -1.5 | -20
Cc1cc(C=C2C(=O)c3ccccc3C2=O)c(C)n1-c1ccc(Cl)cc1 | -16 | · | · | · | -26
O=C1C=C(N2CCCCCC2)C2(CCCCC2)O1 | 1 | 5 | -27% | -3.5 | ·
Cc1cc(NC(=O)c2cccc(S(=O)(=O)N3CCOCC3)c2)no1 | -3 | 14 | -14% | -0.3 | -7
CC(C)N1C(=O)N(c2ccccc2)C(C)(O)CC1(C)C (stereo not drawn) | 2 | -7 | 1% | -3.0 | -21
